# High-throughput results as filed in PubChem.
# Ba CapD inh: inhibitors of Bacillus anthracis CapD enzyme; purified CapD enzyme, fluorescence intensity read-out; active compounds read low; some hits fall short of the stated cut; z-score (test concentration not listed); hit rate 0.23% among 140,000; AID 492967;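 active means z-score under -4 in either of two replicates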;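 further: stock transfer was 100 nL into about 40 µL; score is relative to mean and spread of the plate; one replicate is shown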
# AID504770: growth inhibitors of E. coli YBA685 in a screen for V. cholerae RctB (chromosome II replication) inhibitors; E. coli YBA685 rctB-dependent plasmid, OD600 growth, 3 h; active compounds read low; z-score (test concentration not listed); hit rate 0.27% among 130,000; AID 504770;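 active means z-score under -2 on both plates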;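 further: wells of about 30 µL received 100 nL stock; score is relative to mean and SD of the test wells; the first replicate is given; strong numbers were not always called active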
# * = called active by the depositor; nt = not tested or not shown.
Compound	Ba CapD inh	AID504770
O=C(OCC(=O)N1CCCC1=O)c1n[nH]c2ccccc12	nt	1.5
CS(=O)(=O)c1ccc(CCC(=O)NCCN2CCOCC2)cc1	0.12	nt
Cc1ccc(NS(=O)(=O)c2ccc3c(c2)n(C)c(=O)n3C)cc1	0.04	-0.35
CCCN1CCC(N(C(=O)c2ccc(NC(=O)NCC)cc2)C2CC2)CC1	-0.47	nt
CCOC(=O)NC(=S)N1CCOCC1	0.26	nt
CNC(=O)c1cc2cccnc2nc1C	-0.34	nt
Cc1cc2cc(CNC(=O)CCCc3ccccc3)ccc2n1C	0.96	1.2
Cc1cc(Oc2cc(C#N)c(C#N)cc2N2CCOCC2)cc(C)c1Cl	0.53	-0.65
COc1cc(-c2nc3sc4c(c3c(=O)o2)CCC4)cc(OC)c1OC	0.43	-0.95
COc1ccc(C)cc1-n1c(N)c(C#N)c(C#N)c1-c1ccc(OC)c(OC)c1OC	nt	-0.4
O=[N+]([O-])c1ccc(-c2csc(-c3ccc(Cl)cc3)n2)cc1	-0.18	nt
Cc1nc(-c2ccccn2)nc(SCc2ccccc2)c1Cl	0.12	-0.15
C=C1CC23C[C@@H]4CN5C[C@]6(C)C[C@H](OC(C)=O)C[C@@]7(C2[C@H](O)[C@@H]1C(O)C3(O)C57)C46 (stereo not given in full)	0.59	0.25
O=C(Nc1sc2c(c1C(=O)O)CCCC2)c1ccccc1	0.52	-0.2
COc1ccc(S(=O)(=O)NC2CCCCCC2)cc1C	-0.1	-0.6
Cn1c2c(c3ccccc31)C(C)(C)NC(C)(C)C2	0.08	-0.9
Cc1ccccc1N(CC(=O)Nc1ccc(S(=O)(=O)N2CCOCC2)cc1)S(=O)(=O)c1ccccc1	0.06	nt
Cc1cccc(/C=C2\Sc3ccc(C(=O)N4CCC(C)CC4)cc3N(C)C2=O)c1	0.075	-0.1
CC(C)(C)c1cc(CCC(=O)O)cc(C(C)(C)C)c1O	-0.14	-0.7
NS(=O)(=O)c1ccc(NC(=O)COC(=O)Cc2ccccc2)cc1	nt	0.35

# Part of the list above in order of molecular weight, descending.
Compound	Ba CapD inh	AID504770
Cc1ccccc1N(CC(=O)Nc1ccc(S(=O)(=O)N2CCOCC2)cc1)S(=O)(=O)c1ccccc1	0.06	nt
C=C1CC23C[C@@H]4CN5C[C@]6(C)C[C@H](OC(C)=O)C[C@@]7(C2[C@H](O)[C@@H]1C(O)C3(O)C57)C46 (stereo not given in full)	0.59	0.25
Cc1nc(-c2ccccn2)nc(SCc2ccccc2)c1Cl	0.12	-0.15

# Next part.
Compound	Ba CapD inh	AID504770
COc1ccc(/C=C2\SC(=S)N(CCC(=O)N3CCCc4ccccc43)C2=O)cc1OC	0.025	nt
Cc1ccccc1NC(=O)C(C)n1c(C(F)(F)F)nc2ccccc21 (stereo not given)	-0.12	-1.3
CNC(=O)C(Cc1ccccc1)N1C(=O)C2C3C=CC(C3)C2C1=O (stereo not given)	-0.54	0.15
O=S1(=O)CCC(c2n[nH]c(=S)o2)C1 (stereo not given)	nt	-0.35
CCOC(=O)c1c(NC(=O)CCCOc2ccc(Cl)cc2Cl)sc(C(=O)Nc2ccccc2F)c1C	-0.27	nt
CC1=C(Oc2ccc(Cl)cc2)C(C)(O)N=C(C(F)(F)F)N1 (stereo not given)	-0.79	-0.5
CN(C)c1ccc(C(=O)NNC(=S)NC2CC3C=CC2C3)cc1 (stereo not given)	0.52	nt
CCCC1CC(C)(c2csc(Cc3ccc(OCC)cc3)n2)OC1=O (stereo not given)	-0.48	-0.8
CCOc1ccc(N=C2C(=O)N(c3ccccc3)c3ccccc32)cc1	0.71	-0.8
CC[n+]1c(C)cc(C)n1-c1ccccc1	0.055	1
COC(=O)c1[nH]c2ccccc2c1C(=O)OC	94	nt
Cc1ccc(-c2nn(-c3ccccc3)cc2/C=N/NC(=O)c2ccc(Br)cc2)cc1	0.58	nt
CCc1ccc(N/C(SCc2cccc([N+](=O)[O-])c2)=C(/C#N)C(=O)NCc2ccco2)cc1	0.11	nt
CCn1c(C(NC(=O)c2ccc(C)cc2)C(C)C)n[nH]c1=S (stereo not given)	nt	0.1
Cn1c(=O)n(Cc2ccco2)c(=N)c2c3c(sc21)CCCC3	-0.44	2.7
CN(C)c1ccc(NC(=O)COc2ccc(C#N)cc2)cc1	-0.8	-0.25
CC(Sc1nncn1C(C)C)C(=O)c1c[nH]c2ccccc12 (stereo not given)	nt	-0.85
Cc1ccc(NC2=NCCS2)c(C)c1	-0.67	2.4
O=c1c(Cl)c(N2CCCCC2)cnn1C12CC3CC(CC(C3)C1)C2	nt	-0.15
Cc1nn(CCc2nc(C(C)(C)C)cs2)c2[nH]c(=O)cc(C(F)(F)F)c12	3.9	0.8
O=C(Cc1ccccc1)Oc1ccc(C2SCCS2)cc1	-0.18	-0.85
CCC1=Nc2cc(C(=O)N3CCc4ccccc4C3)ccc2Sc2ccccc21	-0.035	-0.5
CC12c3ccccc3C(c3ccccc31)C1C(=O)N(c3cccc([N+](=O)[O-])c3)C(=O)C12 (stereo not given)	-0.42	nt
O=C(Nc1ccc(Cl)cc1)Nc1cccc(-c2cn3cccnc3n2)c1	-0.2	0.1
CCC(=O)Nc1ccccc1C(=O)NC(C)(C)C	0.81	-0.5
CCN(CC)P1(=S)N(c2ccccc2)N=C2C=C(C)c3ccccc3N21 (stereo not given)	nt	0.7
O=c1c2ccccc2[nH]c(=S)n1Cc1cccnc1	1.4	-0.55
Cn1cc2ccc(N)cc2n1	nt	-0.15
COC(=O)C1C(=O)C2=C(CC1C)Nc1ccccc1NC2c1cc(F)ccc1F (stereo not given)	nt	-0.25
CCc1ccc(NC(=O)c2sc3[nH]c(=O)c(C(=O)O)cc3c2N)cc1	0.44	-0.75
Cc1cc(NC(=O)c2sc(Nc3ccccc3)c(C#N)c2N)no1	-0.38	0.25
COc1cc(C2NC(=O)N(C)C(C)=C2C(=O)OC2CCCCCC2)cc(Br)c1O (stereo not given)	0.17	nt
O=C(NC(O)C(=O)c1ccccc1)c1cccs1 (stereo not given)	-0.03	1
Cc1ccc(Sc2c(C)[nH]n(C(C)(C)C)c2=O)cc1	0.095	-0.25
FC(F)(F)c1nc2ccsc2cc1-c1ncc(-c2ccc(Cl)cc2)o1	5.7	nt
CN(C)S(=O)(=O)c1ccc(C#N)cc1	0.6	-0.25
CCOC(=O)c1cc2c(=O)n3ccccc3nc2n(C(C)C)c1=NC(=O)c1c(-c2ccccc2Cl)noc1C	3.7	0.95
Nc1cccc(NC(=O)c2cccc(S(=O)(=O)Nc3cccc(N)c3)c2)c1	-0.075	-0.4
Cc1cc(C)c(S(=O)(=O)Nc2ccc3oc(C)c(C(=O)OC(C)C)c3c2)c(C)c1	-0.25	nt
COC(=O)c1cc([N+](=O)[O-])ccc1N1CCC(n2cccc2)CC1	0.095	nt
CC1(C)CC(=O)C2=C(C1)c1c(ccc3ccccc13)NC2c1cc(Br)cc([N+](=O)[O-])c1O (stereo not given)	-0.15	nt
N#Cc1c(-c2ccccc2)ccn(Cc2cccc(C(F)(F)F)c2)c1=O	25	nt
O=C(O)c1ncoc1-c1cccc(C(F)(F)F)c1	0.22	-0.2
CCN(CC(=O)NC1CCS(=O)(=O)C1)c1nc(-c2cccnc2)nc2sc3c(c12)CCCC3 (stereo not given)	nt	-0.2
Cc1cnnc2ccc3nonc3c12	0.24	nt
CC1=C(c2ccccc2)[N+](=O)C2(CCCC2)N1[O-]	-0.69	-0.85
CCOC(=O)c1c(-c2ccccc2)oc2ccc(OC(=O)Cc3n[nH]c(=O)c4ccccc34)cc12	nt	-0.15
C[C@@]12C(=O)OC(=O)[C@]1(C)C1CCC2O1	1.5	nt
Clc1ccc(-c2nnc3cccc(Cl)n23)cc1	-0.045	nt
Cc1cc(C(=O)O)c(C)n1C1CC1	nt	-0.1

# Individual results from the entries so far:
# Under AID504770, CCC1=Nc2cc(C(=O)N3CCc4ccccc4C3)ccc2Sc2ccccc21 has -0.5
# Under Ba CapD inh, CCc1ccc(N/C(SCc2cccc([N+](=O)[O-])c2)=C(/C#N)C(=O)NCc2ccco2)cc1 has 0.11
# Under AID504770, CCc1ccc(NC(=O)c2sc3[nH]c(=O)c(C(=O)O)cc3c2N)cc1 has -0.75
# Under AID504770, CC(Sc1nncn1C(C)C)C(=O)c1c[nH]c2ccccc12 (stereo not given) has -0.85

# Single records, as listed above. Screens in order: Ba CapD inh | AID504770
# Cc1cc(C(=O)O)c(C)n1C1CC1 across the screens: nt | -0.1
# CC1(C)CC(=O)C2=C(C1)c1c(ccc3ccccc13)NC2c1cc(Br)cc([N+](=O)[O-])c1O (stereo not given) across the screens: -0.15 | nt
# Clc1ccc(-c2nnc3cccc(Cl)n23)cc1 across the screens: -0.045 | nt
# CCOC(=O)c1c(-c2ccccc2)oc2ccc(OC(=O)Cc3n[nH]c(=O)c4ccccc34)cc12 across the screens: nt | -0.15

# (cont.)
Compound	Ba CapD inh	AID504770
COc1cc(-c2nc(C=Nc3cccc(C(=O)O)c3)c(O)o2)cc(OC)c1OC	-3.3	0.55
O=C(CSc1ccc(-c2ccco2)nn1)c1ccccc1	nt	0.1
CCC(=O)N1CCc2cc(Br)cc(S(=O)(=O)NC(c3ccccc3)c3ccccc3)c21	0.61	0.65
Cc1cc(C)nc(Sc2ccc(OC(=O)C3CC3)cc2)n1	-0.24	nt
Cc1ccc(/C(O)=C2\C(=O)C(=O)N(c3ccccn3)C2c2ccc(C(C)(C)C)cc2)cc1 (stereo not given)	-0.44	nt
COC(=O)C1=CN(Cc2ccc(Cl)cc2)C=C(C(=O)OC)C1c1cc(OC)c(OC)cc1Br	-0.005	nt
COc1cc(CN2CCN(CCOC(=O)NNC(=O)c3ccccc3NC(=O)c3c(F)cccc3F)CC2)cc2c1OCO2	0.73	nt
CCOC(=O)CSc1ccc(C(=O)Nc2ccc(F)cc2F)cn1	-0.015	nt
C[n+]1ccn(CC(=O)c2ccccc2)c1	nt	0.5
Cc1ccc(S(=O)(=O)NC(=O)SC#N)cc1	0.42	-0.85
CC(C)OC(=O)c1cc(C(=O)c2cc(F)ccc2O)coc1=N	nt	-0.65
O=S(=O)(c1ccccc1)c1cnc(-c2cccnc2)nc1-c1ccccc1	-0.17	nt
Cc1snc(S(=O)(=O)/C(C#N)=N/Nc2ccc(C(F)(F)F)cc2)c1C#N	-3.1	nt
CCNC(=O)C(C)NC1CCN(C(C)C)CC1 (stereo not given)	nt	-0.4
CC1(C)C=C(C(=O)N2CCOCC2)C(C)(C)N1	-0.55	-0.35
Cc1ccccc1C(=O)On1c(-c2ccccc2F)nc2ccccc2c1=O	-0.22	nt
CCCc1c(C(=O)Nc2cc(C(C)(C)C)on2)cnn1-c1ccccc1	0.12	0.1
O=S(=O)(Nn1cc(-c2ccccc2)[nH]c1=S)c1ccc2c(c1)OCCO2	nt	-1.4
CC(=O)Nn1c(=O)[nH]c2ccccc2c1=O	16	0.05
O=C(NC1CCCCC1)c1cccc(-n2c(=S)[nH]c3cc(Cl)ccc3c2=O)c1	3.7	0
CCCOC(=O)c1c(NC(=O)c2c(-c3ccccc3)noc2C)sc2c1CCC(C)C2 (stereo not given)	1.8	nt
CC(Nc1nnnn1-c1ccccc1)c1ccccc1 (stereo not given)	nt	-1.1
CC(C)c1ccc(NC(=O)C(NC(=O)Cc2cccs2)c2ccccc2)cc1 (stereo not given)	0.46	nt
CCN(CC)C(=O)Oc1nnc(SC(C)C)n1-c1ccc(Cl)cc1	-0.32	2.5
O=C(Cc1csc(-c2ccccc2)n1)N/N=C/c1ccc(C(F)(F)F)cc1F	-1	nt
CCOC(=O)CC1Sc2ccccc2NC1=O (stereo not given)	0.065	nt
CCOc1ccc(-n2cc(-c3ccccc3)c3c(N4CCC5(CC4)OCCO5)ncnc32)cc1	-0.57	nt
CS(=O)c1cnc(-c2ccccn2)nc1-c1ccc(C(F)(F)F)cc1 (stereo not given)	0.36	nt
Cc1ccc(NC(=O)CSc2nnc3n2CCCCC3)cc1	0.7	-0.5
CC(=O)c1cccc(NC(=O)c2cc(-c3ccc(C)cc3)nc3ccccc23)c1	0.11	nt
CC(C)c1cccc(C(C)C)c1NC(=O)CSc1ncccn1	-0.6	1.1
CN(C)c1ccc(CC2C(=O)Nc3ccccc32)cc1 (stereo not given)	0.64	nt
CC(=C1C(=O)NC(=O)NC1=O)c1ccc(N)cc1	-0.04	-0.7
Clc1cccc(NC2=NCCS2)c1Cl	0.055	nt
O=C(COC(=O)c1ccc(F)c(S(=O)(=O)N2CCCCC2)c1)NC1CC1	nt	1.4
CCOC(=O)N1CCN(S(=O)(=O)c2ccc(C)c(C)c2)CC1	-0.24	0.7
O=C(COc1ccc2ccccc2c1Br)NC1CCCCC1	0.45	-0.3
O=C1CSc2ccc(C(=O)OCCCn3c(=O)[nH]c4ccccc43)cc2N1	nt	0.45
C=CCN1C(=O)C(=O)/C(=C(\O)c2ccccc2)C1c1ccccc1 (stereo not given)	nt	1.9
Cc1ccc(OC(=O)c2ccno2)cc1	-2.9	1.5
O=C1CCC(=O)N1c1c(F)c(F)nc(N2CCCCC2)c1F	78	0.05
CCC(=O)Nc1nc(-c2ccc3c(c2)OCO3)cs1	-0.1	-1.2
CCSc1nnc2ccc(-c3ccncc3)nn12	nt	0.5
CN(C)c1ccc(N2C(=O)/C(=C/c3ccc(-c4ccc(Br)cc4)o3)C=C2c2ccccc2)cc1	-0.15	nt
Cc1ccccc1C(=O)Nc1ccc2nc(SCC(=O)Nc3c(C)n(C)n(-c4ccccc4)c3=O)sc2c1	-0.48	nt
COc1ccc(CCNC(=O)c2ccc(/C=C3\Oc4ccccc4NC3=O)cc2)cc1OC	0.23	-0.25
O=C(NCC1CCCCC1)NC1CCCN(c2cnccn2)C1 (stereo not given)	1.6	2.1
CC1=C(C)CS(=O)N(C(=O)c2ccccc2)C1 (stereo not given)	-0.46	-0.95
